# OX1R antag = blocks the human orexin 1 receptor; O43613; OX1R-expressing cells, FRET antagonist read-out; inhibition, % at 6.6 µM; 1.8% of 330,000 active; in the data active means inhibition mostly above about 38%, no sharp cut-off; inactive means mostly below about 40%;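 further: 0% = agonist challenge alone and 100% = reference antagonist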
# Target sequence (O43613 whole entry, looked up): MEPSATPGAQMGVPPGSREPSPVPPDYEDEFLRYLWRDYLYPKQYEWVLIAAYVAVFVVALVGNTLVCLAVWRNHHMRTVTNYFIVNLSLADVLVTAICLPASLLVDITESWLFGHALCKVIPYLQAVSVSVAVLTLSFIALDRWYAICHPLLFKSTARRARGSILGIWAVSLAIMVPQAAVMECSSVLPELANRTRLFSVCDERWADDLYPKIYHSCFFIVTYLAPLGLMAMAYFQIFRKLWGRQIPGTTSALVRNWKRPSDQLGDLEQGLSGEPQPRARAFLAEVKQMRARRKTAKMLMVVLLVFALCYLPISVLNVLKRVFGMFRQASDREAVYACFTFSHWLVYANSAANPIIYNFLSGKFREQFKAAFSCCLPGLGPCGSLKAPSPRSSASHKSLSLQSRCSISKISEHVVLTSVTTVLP
# Numbers without * were called inactive.
OX1R antag,structure
9,Cc1ccc(NC(=O)C2CCCN(S(=O)(=O)c3c(C)noc3C)C2)c(C)c1 (stereo not drawn)
29,O=C(c1ccccc1)n1c(=S)nc2ccccn21
1,Nc1ccc2nn(-c3ccc(F)cc3)nc2c1
10,COc1ccc(C2c3c(oc4ccccc4c3=O)C(=O)N2Cc2ccncc2)cc1OC (stereo not drawn)
54,O=S(=O)(Cc1nnnn1-c1ccccc1)c1ccc(Cl)cc1
7,COC(=O)/C(=C\Nc1ccc(Cl)c2ccccc12)c1ncc(C(F)(F)F)cc1Cl
5,CC(C)C(=O)Nc1cc(C(F)(F)F)ccc1N1CCOCC1
15,Cc1cc(C(=O)NN=C2CCCCC2)c2ccccc2n1
11,c1ccc2c3c(cc(N4CCOCC4)c2c1)OC1(N2CCOCC2)CCCCC1O3 (stereo not drawn)
43,COCc1c(C(=O)OC)nnn1-c1ccc(C(F)(F)F)cc1[N+](=O)[O-]
24,COC(=O)CSc1nc2ccccc2c(=O)n1C
24,c1ccc(CN2CCN(Cc3cn4cccnc4n3)CC2)cc1
16,COc1ccc(N2C(=O)CC(C#N)=C2N)cc1
3,COC(=O)c1sc(S(=O)(=O)NCCCN(C)C)c(C(=O)OC)c1C
2,Cc1cc2ccccc2n1CCNC(=O)COc1ccccc1
12,O=C1CC(Cc2ccccc2)C(=O)N1CCCn1ccnc1 (stereo not drawn)
14,COc1cccc(NC(=O)COC(=O)COc2ccccc2[N+](=O)[O-])c1
15,Cc1cccc(NC(=O)CSCC(=O)NCc2cccc(C(F)(F)F)c2)c1
-1,O=C(COC(=O)c1cccs1)NC12CC3CC(CC(C3)C1)C2
6,CC1c2ccccc2SC(CCCN(C)C)c2ccccc21 (stereo not drawn)

# Entries from the list above containing a thiophene ring, fused or not, in the order listed:
OX1R antag,structure
3,COC(=O)c1sc(S(=O)(=O)NCCCN(C)C)c(C(=O)OC)c1C
-1,O=C(COC(=O)c1cccs1)NC12CC3CC(CC(C3)C1)C2

# Continued.
OX1R antag,structure
6,N#CCc1nn(-c2ccc(F)cc2)c(N)c1C#N
24,COC(=O)c1ccc(OCC(=O)N2CCCc3ccccc32)cc1
11,COc1ccc(NC(=O)c2nn(C)c3c2CS(=O)(=O)c2ccccc2-3)cc1
15,Cc1noc(C)c1S(=O)(=O)N1CCCC(C(=O)N2CCC(C)CC2)C1 (stereo not drawn)
8,Cc1ccc(C2CN=NC23CCc2ccccc2C3=O)cc1 (stereo not drawn)
-1,O=C(NCC(=O)N1CCN(c2ccccc2O)CC1)c1ccco1
12,CC1CCc2c(sc(NC(=O)CCC(=O)O)c2C(=O)NC2CC2)C1 (stereo not drawn)
5,CCCN1CCN(C(=O)Cn2cnc3ccc(S(=O)(=O)N4CCC(C)CC4)cc3c2=O)CC1
12,CCn1cc(C(=O)O)c(=O)c2cnc(N3CCN(C(=S)Nc4ccccc4C(F)(F)F)CC3)nc21
11,COc1ccc(CC(=O)N/N=C/c2sccc2C)cc1
36,CC(CN1CCCCC1)OC(=O)c1ccc(Cl)cc1 (stereo not drawn)
13,CN(C)CCNC(=O)COc1ccc(C23CC4CC(CC(C4)C2)C3)cc1
7,O=C1/C(=C/c2cccnc2)N=C2CCCCCN12
24,O=C(NCc1ccc(N2CCCC2=O)cc1)Nc1cccc(Cl)c1
9,Cc1ccc(S(=O)(=O)NCC(=O)OCCOc2cccc(Cl)c2)cc1
11,O=C(CNC1CCCC1)Nc1ccc(S(=O)(=O)N2CCCCC2)cc1
17,CC(=O)Nc1ccc(/C=C(\C#N)C(N)=O)cc1
1,CC1(C)Cc2c(cnn2-c2ccccc2)C(=O)/C1=N\NC(=O)c1ccccc1
78,S=C(Nc1ccc2nsnc2c1)N1CCCCCC1
19,CCCC[C@@H]1CNC(=S)N1CC1CCCCC1
11,O=C(c1ccco1)N1CCN(Cc2nc3ccccc3c(=O)n2-c2ccc(F)cc2)CC1
23,O=C1c2ccccc2NC(c2ccc([N+](=O)[O-])cc2)N1O (stereo not drawn)
-35,COc1ccc(Cl)cc1-c1n[nH]c(=S)o1
3,O=C(COC(=O)c1ccco1)Nc1cccc(Br)c1
11,O=C1c2cccc([N+](=O)[O-])c2C(=O)N1CCO
8,Nc1nnc(SCc2ccc3c(c2)OCO3)s1
-8,CC1CC2(CCCC2)N(C(=O)N(C)C)c2ccc(F)cc21 (stereo not drawn)
4,O=S1(=O)N=C(Nc2nncs2)c2ccccc21
13,Cc1noc(C)c1S(=O)(=O)N1CCC(C(=O)N2CCN(c3ccc(Cl)cc3)CC2)CC1
13,CCn1cc(C(=O)O)c(=O)c2cc(F)c(N3CCN(S(=O)(=O)c4ccc(Br)cc4)CC3)cc21
3,COc1ccc(S(=O)(=O)N2CCC(C(=O)Nc3nnc(C)s3)CC2)cc1OC
10,O=C(Cn1c(O)c(/C=C2\C=Nc3ccccc32)sc1=O)Nc1ccc2c(c1)OCO2
3,COc1ccc(-c2c(-c3ccc(OC)nc3)c3ccccc3n2C)cc1
56,COc1cc(OC)cc(C(=O)NC2CCSc3ccccc32)c1 (stereo not drawn)
32,O=C(Nc1ccccc1C(=O)Nc1ccccc1)c1cccs1
42,O=C(NCc1ccccc1Cl)c1cc([N+](=O)[O-])ccc1Cl
22,CCc1ccccc1NC(=O)CSc1nnc(C2CC2)n1CC1CCCO1 (stereo not drawn)
8,O=C(O)C[C@H]1c2cc(F)ccc2S(=O)(=O)N1C1CCCC1
20,C=CCn1c2ccccc2c(=O)c2cc(C#CC[C@@H](C)O)ccc21
21,CC(=O)c1c(C)[nH]c(C(=O)CSc2nnc(-c3ccc(Cl)cc3)n2CC2CCCO2)c1C (stereo not drawn)

# Fetched one by one from above (two):
OX1R antag,structure
11,O=C(CNC1CCCC1)Nc1ccc(S(=O)(=O)N2CCCCC2)cc1
12,CC1CCc2c(sc(NC(=O)CCC(=O)O)c2C(=O)NC2CC2)C1 (stereo not drawn)

# New compounds follow.
OX1R antag,structure
5,Cc1noc(C)c1COC(=O)CCN1c2ccccc2Sc2ccccc21
20,Cn1c(=O)cc(SCC(=O)NCc2ccc(F)cc2)c2ccccc21
7,CC(C)CN1C(=O)c2ccc(C(=O)Nc3ccccn3)cc2C1=O
8,COC1=CC(=O)C(O)=C(CCCCCCC/C=C/CCCCCCCC2=C(O)C(=O)C=C(OC)C2=O)C1=O
2,CC(C)N(CC(N)=O)c1ccc(S(=O)(=O)N2CCCC2)cn1
11,Fc1ccc(/C=N/Nc2cc(N3CCOCC3)ncn2)cc1
5,CCN(CC)S(=O)(=O)c1cc(OC)c(C)cc1C
-5,Cc1cc(C)nc(NS(=O)(=O)c2ccc(N3C(=O)C4C5C=CC(C5)C4C3=O)cc2)n1 (stereo not drawn)
9,O=[N+]([O-])c1ccccc1OCCCN1CCOCC1
33,CCC(=O)NNC(=O)CSc1nnc(-c2ccccc2)c(-c2ccccc2)n1
-7,Cc1cc(Br)c(NC(=O)COC(=O)C2CCCCC2)c(Br)c1
11,COC(=O)c1cc2ccsc2n1Cc1cc(=O)n2ccccc2n1
11,COc1cc2c(cc1OC)C(C)N(CCN1C(=O)c3ccccc3C1=O)CC2 (stereo not drawn)
7,CC(C)CC(=O)N=C1SC2CS(=O)(=O)CC2N1Cc1ccccc1 (stereo not drawn)
20,O=C(Nc1ccc(S(=O)(=O)Nc2ncccn2)cc1)c1nn(Cc2ccccc2)c(=O)c2ccccc12
25,O=C(CSc1ccccn1)N1CCN(c2ncc(C(F)(F)F)cc2Cl)CC1
2,COc1ccc(OCCCC(=O)ON=C(N)c2ccccc2C)cc1
8,O=C(CSc1cccc[n+]1[O-])CSc1cccc[n+]1[O-]
22,O=C(N[C@@H](Cc1ccccc1)C(=O)N1CCC2(CC1)NCCc1[nH]cnc12)c1cccc(Br)c1
19,Cc1ccccc1C(=O)N1CCc2c([nH]c3ccccc23)C1C(F)(F)F (stereo not drawn)
0,Cc1cc(NS(=O)(=O)c2ccc(OCCNS(C)(=O)=O)cc2)no1
7,CC(=O)Nc1cccc(NC(=O)C(F)(F)F)c1
12,Nc1ccncc1N
10,COc1ccc(OC)c(Nc2c3ccccc3nc3ccccc23)c1
19,Cn1c(CCNC(=O)c2ccccc2Cl)n[nH]c1=S
1,O=C(COC(=O)CC1CCCC1)Nc1ccc(Cl)cn1
10,CCOC(=O)Cc1csc(NC(=O)COc2ccc(C)cc2)n1
31,CCNC(=O)NC(=O)CSc1ccccc1F
20,c1ccc(-c2nnc(CN3CCC4(CC3)OCCO4)o2)cc1
10,COc1ccc(-c2coc3cc(OC)cc(O)c3c2=O)cc1
7,Cn1cc(S(=O)(=O)Nc2ccc(OC(F)(F)F)cc2)c(=O)n(C)c1=O
-1,Cc1ccc(NC(=O)COC(=O)c2cccc(OC(F)F)c2)cc1S(=O)(=O)N1CCCCC1
14,COc1ccc(NC(=S)NCCc2ccc(F)cc2)c(OC)c1
9,CSc1nc(-c2ccccc2)cc(C)c1C#N
2,CCc1nonc1NC(=O)c1oc2ccc(Br)cc2c1C
14,CCCCCCc1nnc(NC(=O)c2ccco2)s1
11,CCS(=O)(=O)N1CCN(CC2CC3C=CC2C3)CC1 (stereo not drawn)
20,COc1cc(OC)c(OC)cc1/C=N/Nc1nc2ccccc2[nH]1
9,O=C(CSc1n[nH]c(-c2ccc(Br)cc2)n1)N1CCOCC1
10,COc1ccc(C(=O)C2CCCN(C(=O)c3cccs3)C2)cc1F (stereo not drawn)
9,COc1cccc(-c2csc(N3CCN(Cc4ccccc4)CC3)n2)c1
6,CCCCc1ccc(NC(=O)COc2ccc(C(=O)Nc3ccccc3OCC)cc2)cc1
-4,CCOC(=O)C1CCc2nc3ccccc3c(=O)n21 (stereo not drawn)
8,COc1ccccc1-c1c(C)oc2cc(OC(=O)c3ccco3)ccc2c1=O
18,O=C(Nc1ccccc1C(=O)NC(Cc1ccccc1)C(=O)NC1CCCCC1)c1ccccc1 (stereo not drawn)
6,CC1(C)Cc2c(c(N3CCOCC3)nc3sc(C(N)=O)c(N)c23)CO1
7,CCCN(CC(=O)Nc1ccccc1C)C(=O)COC(=O)CSc1ccc([N+](=O)[O-])cc1
-5,COC(=O)c1cccc(N(CC(=O)NCC2CCCO2)C(=O)CCC(=O)Nc2cc(C)on2)c1 (stereo not drawn)
-4,CC(C)(C)c1ccc(S(=O)(=O)N2CC(C(=O)O)Oc3ccc(Cl)cc32)cc1 (stereo not drawn)
10,O=C(NCc1n[nH]c(=S)n1-c1ccc(Br)cc1)c1ccc(S(=O)(=O)N2CCOCC2)cc1
4,Cc1ccc(N=C2SC(C(=O)NCCc3ccccc3)CC(=O)N2C)cc1C (stereo not drawn)
9,Cc1ccc(N2C(=O)Nc3ccccc3S2(=O)=O)cc1Cl
21,Clc1cccc(CSc2nccn2-c2ccccc2)c1
18,CCc1cc2cc(C)cc(C)c2nc1SCC(=O)N1CCN(C(=O)c2ccco2)CC1
11,Cc1cn(S(=O)(=O)c2ccc(Br)cc2)cn1
22,COc1ccc2[nH]c(=O)c(CN(C(=O)C3CCCO3)c3ccc(C)c(C)c3)cc2c1 (stereo not drawn)
14,CC(C)n1c(-c2ccc(N(C)C)cc2)nc2ccccc21
6,CN(C)S(=O)(=O)c1cccc(NC(=O)c2ccc(N3CCCC3=O)cc2)c1
13,CC1(C)CC(=O)C2=C(C1)N(CC1CCCO1)C(=O)C2(NC(=O)c1cccnc1)C(F)(F)F (stereo not drawn)
7,CC(=O)N1CC(C)Oc2ccc(S(=O)(=O)NC(CC(=O)O)c3ccccc3)cc21 (stereo not drawn)

# Four structures from above, sorted by length of the SMILES, ascending:
OX1R antag,structure
21,Clc1cccc(CSc2nccn2-c2ccccc2)c1
14,CC(C)n1c(-c2ccc(N(C)C)cc2)nc2ccccc21
6,CN(C)S(=O)(=O)c1cccc(NC(=O)c2ccc(N3CCCC3=O)cc2)c1
18,O=C(Nc1ccccc1C(=O)NC(Cc1ccccc1)C(=O)NC1CCCCC1)c1ccccc1 (stereo not drawn)

# (cont.)
OX1R antag,structure
8,COc1ccc(S(=O)(=O)N(CC(=O)NCC2CCCO2)c2ccc(F)cc2)cc1OC (stereo not drawn)
23,COc1cccc(NC(=O)Nc2cc(C)ccc2OC)c1
0,CCn1ncc(C(=O)Nc2cc(C)on2)c1C
21,O=C(COn1nnc2ccc(Cl)cc21)Nc1ccc(F)cc1
9,O=C(C1=C[C@H](C2CCCCC2)C[C@H](OCCCCO)O1)N1CCOCC1
18,O=C(CCN1C(=O)C2C3C=CC(C4CC34)C2C1=O)Nc1ccc(Cl)cc1O (stereo not drawn)
26,O=C(NCc1ccccc1Cl)c1cccc(OC2CCN(C(=O)C3CC3)CC2)c1
4,C=CCNc1nnc(SC2CC(=O)N(c3ccc(OC)cc3)C2=O)s1 (stereo not drawn)
5,CC(Sc1nncs1)C(=O)Nc1ccc(Cl)cn1 (stereo not drawn)
5,O=C(N[C@@H](Cc1ccccc1)C(=O)OCc1ccccc1)c1nc[nH]c1C(=O)N1CCNCC1
7,NC(=O)CCN(Cc1ccccc1)S(=O)(=O)c1ccccc1
10,Cc1c(C(=O)N(C)C2CCCCC2)sc2ncnc(N3CCN(c4ccccc4)CC3)c12
6,CC(C)[C@H](NC(=O)c1ccco1)C(=O)OCC(=O)N1CC(=O)Nc2ccccc21
13,Nc1cnc(-c2ccccc2)nc1Cl
2,COc1ccccc1C(=O)NCCC(=O)NC(C)c1ccc(-n2ccnc2)cc1 (stereo not drawn)
9,CN(CCc1ccccn1)C1CCCN(S(=O)(=O)c2ccc(F)c(Cl)c2)C1 (stereo not drawn)
3,CCCCCn1c(S(=O)(=O)O)nc2ccccc21

# Sorted by the number under OX1R antag (smallest number first): 7 from the list above
OX1R antag,structure
0,Cc1cc(NS(=O)(=O)c2ccc(OCCNS(C)(=O)=O)cc2)no1
6,N#CCc1nn(-c2ccc(F)cc2)c(N)c1C#N
7,CC(C)CC(=O)N=C1SC2CS(=O)(=O)CC2N1Cc1ccccc1 (stereo not drawn)
8,Cc1ccc(C2CN=NC23CCc2ccccc2C3=O)cc1 (stereo not drawn)
9,Cc1ccc(NC(=O)C2CCCN(S(=O)(=O)c3c(C)noc3C)C2)c(C)c1 (stereo not drawn)
22,O=C(N[C@@H](Cc1ccccc1)C(=O)N1CCC2(CC1)NCCc1[nH]cnc12)c1cccc(Br)c1
31,CCNC(=O)NC(=O)CSc1ccccc1F

# Bioassay records deposited in PubChem BioAssay by The Scripps Research Institute Molecular Screening Center.

# Not all compounds are listed; most or all hits stand in other tables.
